# High-throughput results as filed in PubChem.
# BasE inh = BasE siderophore biosynthesis inhibition. purified BasE, fluorescence polarization binding displacement. inhibition, % (concentration not given with the values). hit rate 0.1% among 84,000. AID 485350;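 active = both replicates above 25% with normal brightness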;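 note: 0% = negative plate control signal and 100% = positive plate control signal; stock transfer was 100 nL into about 30 µL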
# KSHV LANA nucl = LANA-nucleosome interaction inhibition | FITC-LANA1-23 / chicken nucleosome fluorescence polarization; stronger effect = lower value | z-score (test concentration not listed) | hit rate 0.3% among 51,000;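 active = both repeat wells score below -2 in polarization z-score versus plate sample wells, excluding overly bright wells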;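 note: 100 nL library stock added to about 30 µL; numbers are from one replicate; some results filed as inactive read as strong as hits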
#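 System – purified chicken nucleosomes with FITC-labelled LANA N-terminal peptide (1-23) · Amount – 240 nM purified chicken nucleosomes (480 nM peptide binding sites), final · Also added – 50 nM FITC-LANA1-23 probe · Medium – TEN-BT buffer, pH 7.5 · Incubation – compound with peptide–nucleosome mix 10–45 min at room temperature · Detection – fluorescence polarization, ex 480 nm, em 535 nm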
# An asterisk follows results filed as active; . = not tested or not shown; & = joins results of further samples. The list is partial; the hit share may differ from the screen's.
# Second line of a record – BasE inh | KSHV LANA nucl
- COc1ccc(Cn2c(SCC(=O)NCc3ccccc3)nc3c(oc4ccccc43)c2=O)cc1
  -0.9 | 0.63
- CCN1C(=O)c2cccc3c(S(=O)(=O)NCCc4ccc(OC)c(OC)c4)ccc1c23
  2.9 | .
- Cn1c(=O)c2c(ncn2CCC(=O)N2CCN(c3cccc(C(F)(F)F)c3)CC2)n(C)c1=O
  2.3 | 0.64
- CCOC(=O)/C(C#N)=C/C=C1\C=Cc2ccccc2N1CC
  0.6 | .
- O=C(O)/C=C\C(=O)Nc1ccc2nc[nH]c2c1
  0.4 | -0.67
- COc1ccc(C(=O)NC(=O)c2ccccc2O)cc1OC
  1.4 | .
- CC1(C)C(=O)Nc2ccccc2N1C(=O)Cn1ccsc1=N
  0.1 | .
- CCCn1c(N)c(C(=O)CSc2ncc(C(F)(F)F)cc2Cl)c(=O)[nH]c1=O
  1.6 | .
- CC(C(=O)NCCc1c[nH]c2ccccc12)N1Cc2ccccc2C1=O (stereo not given)
  -1.8 | 0.083
- Cc1ccc2nc(N=C(N)N)[nH]c2c1
  -2.6 | .

# Complete entries as entered above. Values in the order: BasE inh	KSHV LANA nucl
# `CCOC(=O)/C(C#N)=C/C=C1\C=Cc2ccccc2N1CC` across the screens: 0.6	.
# `CCCn1c(N)c(C(=O)CSc2ncc(C(F)(F)F)cc2Cl)c(=O)[nH]c1=O` across the screens: 1.6	.
# `Cc1ccc2nc(N=C(N)N)[nH]c2c1` across the screens: -2.6	.
# `COc1ccc(C(=O)NC(=O)c2ccccc2O)cc1OC` across the screens: 1.4	.

# Further records.
# Second line of a record – BasE inh | KSHV LANA nucl
- CCOc1cc(N2CCOCC2)c(OCC)cc1NC(=O)c1cccc(-n2cnnn2)c1
  -0.2 | .
- NC(N)=NC(=O)c1ccc(N)cc1
  1.4 | -0.84
- O=C(CN1C(=O)C2C3C=CC(C3)C2C1=O)N[C@@H](Cc1ccccc1)c1nc2ccccc2[nH]1 (stereo not given in full)
  2.9 | .
- Cc1cc(NC(=O)c2ccc(NC(=O)C(C)C)cc2)no1
  0.1 | 0.31
- COC(=O)Cc1c(C)ncnc1OCC(=O)Nc1ccc2c(c1)OCCO2
  1.2 | -0.4
- CCOc1ccc(-c2nc(NC(C)=O)c3c(=O)oc4c(OC)cccc4c3n2)cc1
  3.0 | 0.53
- Cc1ccccc1NC(=O)N1CC(C)Sc2ccccc21 (stereo not given)
  -1.0 | -0.51
- COc1ccc(/C=C/C(=O)OCc2nc3ccsc3c(=O)[nH]2)cc1S(=O)(=O)N1CCOCC1
  2.6 | .
- O=C(NCCO)c1ccc2[nH]c3c(c2c1)CCCC3
  0.2 | 0.48
- O=C(CSCc1ccccc1)NC1CCSC1=O (stereo not given)
  0.4 | 0.49
- CC(=O)NCc1c(F)cccc1Cl
  0.6 | .
- CSCc1nc2sc(C(=O)NC3CC3)c(C)c2c(=O)[nH]1
  -1.3 | .
- COCC(C)n1c(=S)[nH]c2ccccc2c1=O (stereo not given)
  1.7 | .
- CCOc1cc2[nH]c(=S)n(CC(OCC)OCC)c(=O)c2cc1OCC
  -0.8 | -0.56
- COc1cccc(NC(=O)CN(C)CC(=O)Nc2ccc(S(=O)(=O)N(C)C)cc2)c1
  4.4 | .
- CCC(=N\Nc1nc(C)cc(=O)[nH]1)/C(CC)=N/Nc1nc(C)cc(=O)[nH]1
  2.9 | .
- Brc1cnn(Cc2ccccc2)c1
  1.9 | 0.05
- Cc1nc2nc(N3C(=O)c4ccccc4C3=O)[nH]n2c(=O)c1Cl
  3.1 | -0.2
- COc1ccc(C(CC#N)c2ccccc2)cc1 (stereo not given)
  1.8 | -1.2
- Cc1ccc(S(=O)(=O)N(C)C2CCS(=O)(=O)C2)cc1C (stereo not given)
  0.9 | .
- O=c1ncn(Cc2ccccn2)cc1-c1ccccc1
  3.5 | .
- O=C1CSC(=Nc2ccc(O)cc2)N1
  0.6 | 0.32
- c1ccc2[nH]c(C3CCN(CCN4CCOCC4)CC3)nc2c1
  0.4 | 0.79
- COc1cc(C(=O)OCC(=O)/C=C2/N(C)c3ccccc3C2(C)C)ccc1OCC(=O)N1CCOCC1
  1.9 | .
- CC1(C)CC(CCC(=O)Nc2ccc(S(N)(=O)=O)cc2)C(=O)O1 (stereo not given)
  0.7 | -1.1
- Cc1occc1-c1nnc2sc(Cc3cccc4ccccc34)nn12
  -3.4 | -0.29
- Cc1occc1-c1nnc2sc(-c3cccs3)nn12
  -1.8 | -0.78
- CN(C)C1(CNCc2cnn(-c3ccccc3)n2)CCCCC1
  -2.0 | .
- CC(=O)n1cc(/C=N/NC(=O)c2sc(C)nc2C)c2ccccc21
  0.9 | .
- O=C(COc1ccc(-c2nnco2)cc1)NCCC1=CCCCC1
  -1.5 | .

# The list goes on (two carried over from the part before).
# Second line of a record – BasE inh | KSHV LANA nucl
- CC(=O)n1cc(/C=N/NC(=O)c2sc(C)nc2C)c2ccccc21
  0.9 | .
- O=C(COc1ccc(-c2nnco2)cc1)NCCC1=CCCCC1
  -1.5 | .
- CC1CCC(C#N)(N(C)C(=O)COC(=O)c2ccc(CSc3ncn[nH]3)cc2)CC1 (stereo not given)
  1.8 | .
- CCC(=O)NC(=S)Nc1ccccc1
  2.0 | -0.57
- O=C(OCn1nnc2ccccc2c1=O)C1CCN(C(=O)c2ccc(Cl)cc2)CC1
  3.4 | .
- Cc1cc(/C=C(\C#N)C(=O)NCc2cccs2)c(C)n1C1CCCC1
  -3.1 | -0.26
- CCc1ccc2nc(Cl)c(CO)cc2c1
  2.4 | -0.47
- Cc1ccccc1NC(=O)N1CCCC(c2nc(-c3ccc(F)cc3)no2)C1 (stereo not given)
  -3.8 | 2.4
- O=C(CSc1nnc(COc2ccccc2Cl)o1)NC(=O)c1ccccc1
  -1.6 | .
- O=c1ccc2cc(S(=O)(=O)N3CCOCC3)ccc2o1
  2.6 | 0.12
- CC(C)(C)c1ccc(C(=O)NCCN2CCCC2)cc1
  0.5 | 0.14
- Cc1cccc(N/C=C/C(=O)c2cccs2)c1C
  . | -0.28

# 3 compounds already listed, arranged by count of non-hydrogen atoms, low to high:
# Second line of a record – BasE inh | KSHV LANA nucl
- Cc1cc(/C=C(\C#N)C(=O)NCc2cccs2)c(C)n1C1CCCC1
  -3.1 | -0.26
- O=C(CSc1nnc(COc2ccccc2Cl)o1)NC(=O)c1ccccc1
  -1.6 | .
- O=C(OCn1nnc2ccccc2c1=O)C1CCN(C(=O)c2ccc(Cl)cc2)CC1
  3.4 | .

# More structures follow:
# Second line of a record – BasE inh | KSHV LANA nucl
- CCn1c(C)c(P(=O)(N2CCOCC2)N2CCOCC2)c2ccccc21
  2.6 | .
- COc1cc2c(cc1OC)CN(S(=O)(=O)c1ccc3c(c1)OCCCO3)CC2
  -0.1 | .
- N#Cc1cccc(NC(=O)COC(=O)c2ccc(Cl)cc2N)c1
  0.3 | .
- CCCCCC(=O)/C=C/C=C\C/C=C\C/C=C\CCCC(=O)O
  0.2 | 0.19
- FC(F)(F)c1cccc(CN2CCSCC2)c1
  4.0 | 0.08
- S=C(Nc1ccccc1)Nc1ccccn1
  -1.7 | -0.073
- Nc1n[nH]c2cc(=O)[nH]c(O)c12
  10 | -0.083
- CCN(CC)S(=O)(=O)c1cccc(S(=O)(=O)c2ccc(Cl)c(S(=O)(=O)N(CC)CC)c2)c1
  -1.7 | 0.14
- O=C(CSc1nc2ccccc2o1)N(Cc1cccs1)c1ccc2c(c1)OCCO2
  -0.7 | .
- Cc1ccc2nc(NCC(C)c3ccccc3)c3nnnn3c2c1 (stereo not given)
  -0.6 | -0.17
- COCc1c(C(=O)Nc2cc(C)cc(C)c2)oc2ccccc12
  2.1 | .
- CC(C)(C)C1CCc2onc(C(=O)Nc3cccc(O)c3)c2C1 (stereo not given)
  0.6 | -0.42
- CC(=O)N1CCC(C(=O)Nc2ccc3nc(C)ccc3c2)CC1
  . | -0.25
- CC1CC(C)CN(C(=O)c2ccc3ncsc3c2)C1 (stereo not given)
  -1.2 | .
- N#CC(C(=O)c1cccs1)=C1SCCCS1
  2.2 | .
- O=C(Nc1cccc(C(F)(F)F)c1)c1cccnc1NCCO
  -1.3 | 0.36
- Cc1nc(CSc2nnc(-c3c[nH]c4ccccc34)o2)cs1
  -2.1 | .
- O=C(Cn1c(=O)sc2ccccc21)Nc1ccc(O)cc1
  -0.8 | -1.1
- O=C(c1cccc(NS(=O)(=O)c2ccc(F)c3ccccc23)c1)N1CCOCC1
  0.1 | -0.85
- CC1(C)CC(=O)C(C=Nc2ccc(S(=O)(=O)Nc3nccs3)cc2)=C(O)C1
  0.6 | .

# The listing continues:
canonical_smiles,BasE inh,KSHV LANA nucl
Cc1ccc(S(=O)(=O)NCCN=Cc2ccc(N(C)C)cc2)cc1,0.2,-0.3
O=C1/C(=C/c2cccs2)SC(=S)N1/N=C/c1cccs1,-2.5,1.2
CCCc1cc(-c2nc(-c3ccc(Br)cc3)cs2)ccn1,3.3,.
COc1ccc(OC)c(C(O)CNC(=O)CN)c1 (stereo not given),-1.0&-1.3,1.2&-1.4&-0.32
CCc1c(C(=O)OC)nn(-c2ccc(OC)cc2)c(=O)c1C#N,6.4,0.37
O=C(CN1CC(=O)Nc2ccccc21)NCCc1ccc(Cl)cc1,-0.2,.
CN(CCc1ccccn1)C(=O)Nc1cc(Cl)cc(Cl)c1,-0.9,0.67
CCc1ccc(Oc2coc3cc(OC(=O)c4ccco4)ccc3c2=O)cc1,2.0,.
O=P(c1ccccc1)(c1ccccc1)C1CCS(=O)(=O)C1 (stereo not given),0.7,.
COC(=O)Cn1c(O)c(N=NC(=O)c2ccc3ccccc3c2O)c2ccccc21,6.3,2.1
Cc1ccc(NCc2n[nH]c(=S)n2C)cc1Cl,2.2,0.54
CC1(C)Cc2cccc(OCC(=O)NCc3ccc4c(c3)OCO4)c2O1,-0.2,.
O=C1c2ccccc2C(=O)N1CC1=NCCc2ccccc21,-0.7,0.58
COC(=O)c1ccccc1S(=O)(=O)NC(=O)Nc1nc(C)c2c(n1)CCS(=O)(=O)C2,0.6,.
COC(=O)C(C(=O)OC)C1(C)CCC(OC)C1(C)C (stereo not given),1.0,.
C(=Nc1nc2ccccc2nc1N1CCCC1)N1CCOCC1,4.0,.
Cc1cc(C)cc(NC(=O)C2CCCC2)c1,-0.2,.
CSc1ccc(C2C(C#N)=C(N)Oc3c2ccc(=O)c2c(C)oc(C)c32)cc1 (stereo not given),-7.8,2.7
O=C(CCCSc1nc2ccccc2[nH]1)NCc1ccco1,1.2,.
CCC1(C)C2CCC1(C)C(NC(=O)c1ccccc1)(C(=O)O)C2 (stereo not given),-0.9,.
CCCCCN1C(C)=CC(=C(C#N)C#N)C=C1C,-1.9,.
c1ccc(CCn2c(Cc3cccs3)nc3ccccc32)cc1,-1.0,.
CC(C)(C)C1(C)OC(CO)C(CO)O1 (stereo not given),-0.6,0.52
O/N=C(\c1ccccc1)c1nccc2ccccc12,0.1,0.36
CCOC(=O)c1ccc(N=Cc2nc3ccccc3n2C)cc1,-0.2,0.11
Cn1c(CSCc2nc(-c3ccc(Cl)cc3)cs2)n[nH]c1=S,0.3,-0.65
c1ccc2c(c1)SCc1nnc(-c3ccncc3)n1-2,3.5,0.017
COc1cccc(OCC(=N)N)c1,-1.7,-1.3
Cn1cccc1P(=Nc1ccccc1)(N1CCOCC1)N1CCOCC1,1.0,.
N#CCS(=O)(=O)Cc1ccc(C(=O)O)cc1,-1.1,.
CCc1ccc(C(=O)CSc2nnc3[nH]c(=O)c(C(C)(C)C)nn23)cc1,1.2,-2.1
CC(C)CC(C(=O)N1CCCc2ccccc21)N1C(=O)c2ccccc2C1=O (stereo not given),2.3,.
CC12CCC(=O)N1CCCCN2 (stereo not given),-0.5,-0.29
CCNC(=O)CCSc1nc2cc(Cl)ccc2o1,-3.2,-0.5
Fc1ccccc1C1=CN2CCN=C2S1,2.3,.
CC(C)(C)N=C(NS(=O)(=O)c1ccc(Br)cc1)c1ccccc1,2.7,.
Cc1cccc(C(=O)NCC(=O)OCc2nc(N)nc(Nc3ccccc3C)n2)c1,3.5,.
COc1cc2c(cc1OC)C(C)N(C(=O)c1ccc(N)cc1)CC2 (stereo not given),-0.2,-1.5
COc1ccc(CCn2c(=S)[nH]c3nccnc3c2=O)cc1OC,-2.1,0.32
Cc1cc(C)c(OCCCNC(C)(C)C)c(Cl)c1,2.5,.
N#Cc1c(N)sc2c1CCN(c1nc(CN3CCOCC3)nc3scc(-c4cccs4)c13)C2,-11,.
COC(=O)C(NC(=O)Nc1ccc(C(C)(C)C)cc1)C(C)C (stereo not given),-1.8,0.18
O=C(CCc1nc2ccccc2s1)OC1CCCCC1=O (stereo not given),1.2,.
CCOC(=O)c1c(SC)nc2ccc(Cl)cc2c1N1CCOCC1,-2.8,.
NC(=O)Cc1cc(=O)oc2cc(O)ccc12,3.9,-0.89
CCN(CC)CCN(C)C1C2CC3CC(C2)CC1C3 (stereo not given),0.5,-1.2
O=C1CC(NC(=O)N2CCCc3ccccc32)CN1c1ccccc1 (stereo not given),1.0,-0.13
CC1CCCCN1CC(=O)Nc1cc(C(C)(C)C)nn1-c1ccccc1 (stereo not given),1.9,.
O=c1oc2ccccc2cc1-c1cn2c(n1)sc1ccccc12,2.9,.
CC(=O)OCCSc1nc(N(C)C)nc(N(C)C)n1,1.8,-0.095
Cc1ccc2cnn(CC(=O)NCCCN3CCCC3=O)c2c1,1.9,2.1
Cc1cc(Br)ccc1NC(=O)CN1CCCCC1,.,0.23
CSCCNC(C)=O,0.5,-0.32
CSCCC1NC(=O)NC1=O (stereo not given),1.2,.
CCCCN1COc2c(c3c(C(=O)OCC)c(C)oc3c3ccccc23)C1,4.1,0.63
O=C(OCC(=O)N1CCN(C(=O)c2ccco2)CC1)c1ccccc1,0.5,.
